Assay outcomes as filed in PubChem BioAssay.
Mtb hypoxia rep – PubChem AID 1159583 | M. tuberculosis hypoxia-regulated fluorescent reporter, fluorescence | hit rate 0.1% among 300,000 | fluorescence inhibition, % (no concentration beside the values);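 active = 35 to 45% if threefold the growth effect, above 45% if 1.5-fold the growth effect; inactive = the rest, general growth blockers included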;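 note: wells of about 50 µL received 100 nL stock; 0% = vehicle wells and 100% = reference inhibitor wells; whole bacteria with a GFP reporter of the hypoxia response; strong numbers were not always called active; many hits fall short of the cut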
Autofluor counter – counter-screen for toxin protease inhibitors: compound fluorescence; compound autofluorescence counterscreen, microsphere flow cytometry; stronger effect = higher value; fluorescence intensity (no concentration beside the values); hit rate 3.1% among 360,000; AID 624483;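 active = at least 3 SD above the mean of all compounds, about 16000 in these data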;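 note: 100 nL of 1 mM stock went into each well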
ugtP null kill – growth inhibition of ugtP-null S. aureus, primary screen, RN4220 ugtP deletion, OD600; 16 h; some inactives read as strong as hits; growth inhibition, % (concentration not given with the values); AID 1259309, 2017; hit rate 0.54% among 330,000;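 active = z-score under -3 and OD600 up to 0.15 on both plates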;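 note: plate controls were untreated wells for no effect and antibiotic for full effect; wells of about 80 µL received 100 nL stock; the first replicate is given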
Sa RN4220 lethal – growth inhibition of S. aureus RN4220, primary screen, OD600 | AID 1259311, 2017 | 16 h | hit rate 0.33% among 330,000 | inhibition, % (test concentration not listed);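 active = z-score of -3 or lower and OD600 up to 0.18 on both plates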;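 note: plate controls were untreated cells for no effect and reference antibiotic for full effect; stock transfer was 100 nL into about 80 µL; one replicate is shown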
BJeLR lethal – MLPCN primary cell-based screen for lethality selective to Ras in HRASV12 cells | BJeLR (HRASV12) viability, CellTiter-Glo ATP luminescence, 48 h; reference of the scale not given here | inhibition, % (no concentration beside the values) | hit rate 0.17% among 300,000 | AID 1554, 2009;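 active = replicate mean above 50%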;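 note: 50 nL library stock added to about 25 µL; numbers are from one replicate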
PrP UTR inh – inhibition of PrP 5' UTR reporter expression | cell-based PrP 5' UTR mRNA reporter, plate reader | inhibition, % (no concentration beside the values) | hit rate 0.35% among 340,000 | AID 488862, 2010;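 active = every replicate at 50% or more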;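 note: 0 = median of the neutral control wells; tested in H4 reporter cells; numbers are from one replicate; inactives centre near -14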
Mtb hypoxia rep growth – second read-out of Mtb hypoxia rep, no call of its own (marks repeat the call); growth inhibition, %; measured here: M. tuberculosis growth (absorbance);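 0% = vehicle and 100% = reference antibiotic; read after six days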
Numbers without * were called inactive; / = not tested or not shown. Not a hit list; about 3.9% have a hit in one of these screens.

SMILES	Mtb hypoxia rep	Mtb hypoxia rep growth	Autofluor counter	ugtP null kill	Sa RN4220 lethal	BJeLR lethal	PrP UTR inh
O=C(c1ccc2c(c1)N(Cc1ccccc1F)C(=O)c1ccccc1S2(=O)=O)N1CCCC1	9	-2	5884	0	3.8	1	-19
COc1cc(=O)[nH]c(SCc2c(F)c(F)c(F)c(F)c2F)n1	12	5	18910*	-3	14	-3	-2
CC(Sc1nnc(C(C)Oc2ccccc2F)o1)C(=O)NCc1ccc2c(c1)OCO2 (stereo not given)	11	5	5729	-1	7.3	/	/
C#CCOc1c(Br)cc(/C=C2/C(=O)ON=C2C)cc1OC	/	/	3755	/	/	-2	-18
Cc1ccc(NCC(O)C(O)C(O)CO)c(N=Nc2ccccc2)c1C (stereo not given)	21	11	4545	5	-0.6	18	-9
COc1ccc(OC)c(CCNC(=O)CS(=O)(=O)Cc2nc(-c3ccc(C)cc3)oc2C)c1	3	1	23969*	-6	4.9	2	-25
CCC[C@H]1CC(=O)C=C(c2ccsc2)ON1C(=O)OC(C)(C)C	-1	0	3595	10	2.0	/	-32
CCCC(=O)Nc1nnc(/C=C/c2ccccc2)s1	-5	2	/	-3	3.7	3	-68
O=C(NCc1cccc(Cl)c1)c1cccc(S(=O)(=O)N2CCCCC2)c1	29*	55*	8792	-3	3.4	/	-33
Cc1cc2nc3ccc(=[N+](C)C)cc-3sc2cc1N	9	-41	3584	44	69	57*	-22
Cc1ccc(N=C2N=C(N)c3ccccc32)c(C)c1	/	/	3182	-2	-2.5	12	-9
C/C(=N/NC(=O)CNc1ccc(C)cc1)c1ccc(Cl)cc1	/	/	8166	/	/	-7	-34
Cc1cc(OCC(=O)OCC(=O)N(C)Cc2ccccc2C)ccc1Cl	-1	-5	/	9	9.5	/	-15
Cc1noc(-c2ccc(Cl)cc2)c1C(=O)ON=C(N)c1ccc(C(C)(C)C)cc1	-1	-2	/	62	-6.4	/	/
O=C(CCNS(=O)(=O)c1ccc(Br)s1)NCc1ccc2c(c1)OCO2	13	9	5223	2	4.2	1	-14
CCCCN(C(=O)c1ccc(C)c(S(=O)(=O)N2CCOCC2)c1)c1c(N)n(CC(C)C)c(=O)[nH]c1=O	6	5	6650	9	-0.8	-4	-42
COc1ccc(S(=O)(=O)NC(C)C(=O)NCC2CCCO2)cc1OC (stereo not given)	2	6	3572	6	-0.6	6	-6
Cc1ncc([N+](=O)[O-])n1CC(=O)NN=Cc1ccccc1F	6	-3	/	18	6.8	/	/
O=C(CSc1ncn(-c2ccccc2)n1)Nc1nccs1	0	11	9405	-4	1.7	-4	5
C=CCON=C(CCC)C1=C(N)CC(C)(C)CC1=O	-1	-3	/	11	4.8	/	/
COc1ccc(Cl)cc1NC(=O)CSc1nnc(Cn2c(=O)sc3ccccc32)n1C	/	/	5618	7	0.5	/	-3
O=C(CN(C(=O)CCNC(=O)c1ccco1)c1ccccc1)NC1CCCC1	-11	7	10938	-5	-3.7	2	-15
COC(=O)c1ccc(N2CCN(S(=O)(=O)c3ccc(Br)cc3)CC2)c([N+](=O)[O-])c1	3	14	3243	-2	4.5	-5	5
C(=C\c1ccccc1)/C=N/n1cnnc1	/	/	24268*	/	/	-1	-18
COC(=O)c1ccc(COc2ccc(-c3nnn(CC(N)=O)n3)cc2)cc1	6	0	2238	1	6.0	3	-24
CCNC(=O)CC(=O)Nc1ccccc1C(=O)O	/	/	3609	-7	-6.7	-1	-10
O=C(NCCO)c1ccc(CSc2nc3ccccc3[nH]2)cc1	1	9	2153	5	5.0	-5	-23
COC(=O)c1cc(Br)c(=O)n(Cc2ccc3c(c2)OCO3)c1	-4	6	2701	-9	-1.1	-2	-4
Cc1cc(C)c(C#N)c(SCC(=O)Nc2ccccc2)n1	-3	1	3200	0	1.7	4	-73
CCN(NC(=O)C(O)(c1ccc(F)cc1)c1ccc(F)cc1)C(=O)c1ccccc1	2	1	2393	-2	-0.5	-8	-25
CCOC(=O)N1CCN(C(=O)c2ccccc2N(Cc2ccccc2)S(=O)(=O)c2ccccc2)CC1	-11	-5	4006	4	1.1	2	-20
COc1nc(NS(=O)(=O)c2ccc(C)cc2)nc(C)c1Cl	/	/	4413	14	0.3	0	-13
CCC(C(=O)Nc1ccc(Cl)cc1)N1CCCC1=O (stereo not given)	7	3	3584	6	2.2	6	/
COc1ccc(C(CNC(=O)Cc2ccc(Cl)c(Cl)c2)N2CCCCC2)cc1 (stereo not given)	10	15	5940	8	1.5	-6	-7
O=C(Nc1ccccc1)N(C1=NCCC1)c1ccccc1	-3	5	6136	-1	5.0	10	-27
S=C(NCCc1ccccc1)Nc1ccccc1Cl	3	5	2368	1	4.1	-15	-53
CCOc1ccccc1NC(=O)C1CCCN(S(=O)(=O)c2ccc(OC)c(C)c2)C1 (stereo not given)	/	/	4284	-2	-0.2	-3	-24
NS(=O)(=O)c1ccc(Nc2nc(-c3ccc(O)cc3)cs2)cc1	1	-2	21481*	6	2.6	1	-19
CCOc1ccc(C)cc1S(=O)(=O)N1CCCCC1	4	10	21517*	-1	1.4	1	-12
CN1CCN(CCCOc2ccc(-c3ccccc3)cc2)CC1	12	9	3712	21	-4.0	-2	-40
C#CCn1c(=NC(=O)CN2C(=O)CCC2=O)sc2cccc(OC)c21	6	10	5891	6	1.6	-7	-14
Cc1cc(C)c2c(-n3cccc3)c(C(=O)NNS(=O)(=O)c3ccc(Br)cc3)sc2n1	5	6	8439	-36	9.9	-19	-26
CCOC(=O)C1C(=O)NC(SCC(=O)Nc2nccs2)=C(C#N)C1c1ccccc1OCC (stereo not given)	1	8	8874	-14	10	5	-20
C/C(=N\Nc1nc(N)cc(Cl)n1)c1cccc(N)c1	/	/	2354	/	/	-4	-12
Cc1ccc(C(=O)OCC(=O)N2CCOCC2)c(C)c1	11	11	3541	8	1.9	-23	-37
CCOC(=O)c1sc(NC(=O)COC(=O)C(CCSC)NC(C)=O)nc1C (stereo not given)	9	2	2657	7	0.6	-1	-7
CCCn1c(SCC(=O)Nc2ccccc2Cl)n[nH]c1=O	13	3	4264	1	3.3	-8	-11
Cc1cccc(-c2nsc(SCC(=O)Nc3cc(C)on3)n2)c1	15	16	8493	1	0.2	0	-28
COc1ccc(CNC(=O)C2CCC(=O)N2C(C)C)c(OC)c1 (stereo not given)	-7	-3	4427	2	3.2	-8	-5
CCc1ccc(-n2c(C)cc(/C=N/NC(=O)c3ccncc3)c2C)cc1	/	/	2405	/	/	4	-17
CCCn1c2c(c(=N)c3c1CCC3)CCC2	8	1	4304	9	3.4	4	-10
CCCCCn1c(Br)nc2c1c(=O)n(CC(N)=O)c(=O)n2C	9	12	4360	-2	5.0	-2	-7
CCCCNC(=O)/C(C#N)=C/c1ccc(F)cc1F	11	8	3329	11	6.9	33	-2
Cc1ccc2c(N)[nH]nc2n1	-1	12	2552	-8	-1.4	-8	-11
COc1ccc(-c2c(C(F)(F)F)nn(C)c2NC(C)=O)cc1	22	26	4458	11	5.9	-5	-22
CCc1cccc(C)c1NC(=O)Cc1ccsc1	3	1	6145	4	-0.5	-9	-12
Cc1cccc(NS(=O)(=O)c2cccc([N+](=O)[O-])c2)n1	8	6	3954	-3	2.1	0	-13
CC1=CC(C)(C)n2c(O)c(N=NC(N)=S)c3c(C)ccc1c32	7	2	9280	-8	4.3	-5	-18
C=CCNc1nc(Cl)nc(Nc2ccc(OC)cc2OC)n1	2	2	4091	3	4.5	4	-23
Cc1ccc(Sc2ccc(N)cc2C#N)cc1	/	/	2580	-8	2.6	-6	3

The listing continues.
SMILES	Mtb hypoxia rep	Mtb hypoxia rep growth	Autofluor counter	ugtP null kill	Sa RN4220 lethal	BJeLR lethal	PrP UTR inh
COc1ccccc1OCc1cc(-c2ccccc2)no1	8	1	4472	2	10	6	-94
CC1(C(=O)NN=Cc2ccccc2)CC1(Cl)Cl (stereo not given)	11	14	/	9	-0.9	/	/
CCc1ccc(OCCNC(=O)c2cc(SC)ccc2Cl)cc1	-2	3	23443*	16	0.7	-2	-24
O=C(NNC(=O)C12CC3CC(CC(C3)C1)C2)c1cccc(O)c1	6	0	3775	3	1.6	6	-15
O=C(Cc1c(F)cccc1Cl)Nc1ccncc1	11	7	10644	4	2.8	4	-51
c1ccc(COC(CN2CCCCCC2)CN2CCCCCC2)cc1	-4	4	4496	-9	-1.4	7	-23
COc1ccc(C)cc1NC(=S)N1CCN(c2ncccn2)CC1	1	10	3127	5	8.5	/	-11
CN(C)c1ccc(NC(=O)CCN2CCN(c3ccccn3)CC2)cc1	1	-7	2804	5	2.3	-4	-8
CCC(=O)Nc1c(-c2ccccc2Cl)c(=O)c2ccccc2n1C	12	18	3707	-2	2.3	-2	-3
Cc1ccc2c(c1)c1c3n2CCN(C(=O)CN2CCN(C)CC2)C3CCC1 (stereo not given)	12	21	4238	-1	0.5	8	-16
CC(=O)N(CCN1CCOCC1)Cc1cc2cc3c(cc2nc1Cl)OCO3	2	8	2417	8	1.1	-3	-43
Oc1ccc(/C=N/Nc2ccc(C(F)(F)F)cn2)c(O)c1	/	/	2800	/	/	17	-9
Cc1cccc(CCN(C(=O)c2csnn2)C(C(=O)NC2CCCC2)c2ccco2)c1 (stereo not given)	6	-4	3065	-2	1.8	3	-6
Cc1cc(C(=O)CN2C(=O)NC3(CCCC3)C2=O)c(C)n1-c1ccc2c(c1)OCO2	6	5	2271	-5	3.6	4	-34
OC1(C(F)(F)F)CC(O)(C(F)(F)F)n2nc(-c3ccccc3)cc2N1 (stereo not given)	4	6	8602	-9	5.2	2	-21
O=C(COC(=O)c1cccnc1Nc1cccc(C(F)(F)F)c1)NCc1ccc2c(c1)OCO2	-2	2	4069	6	-10	-18	-21
COC(=O)CN(C#N)c1nc(C)cc(C)n1	-4	-2	2782	5	-2.4	7	-13
CCOC(=O)N1CCN(CC(=O)Nc2ccc(F)cc2)CC1	1	6	3287	8	-0.5	4	-21
CC(=O)Nc1ccc(N2S(=O)(=O)c3ccccc3S2(=O)=O)cc1	/	/	4157	-20	1.0	/	-22
COc1ccccc1CCNS(=O)(=O)c1cc2c3c(c1)C(C)C(=O)N3CCC2 (stereo not given)	-5	-4	5598	-5	-0.2	5	-9
COc1ccc(-n2c(Cc3cccn3C)nnc2SCC(=O)NCc2ccco2)cc1	/	/	4270	-11	-4.8	-4	13
O=C(CSC(=S)N1CCOCC1)Nc1ncc2c(n1)CC(c1ccco1)CC2=O (stereo not given)	-3	3	4408	3	0.9	2	-8
CCCN(CC1CCCO1)C(=O)CCc1nnc(CCc2ccc(OC)cc2)o1 (stereo not given)	7	15	4863	8	1.9	-8	-1
CNC(=O)c1nc[nH]c1C(=O)NC	4	4	3764	7	1.0	-5	-42
C/C(C=NNC(=O)c1cccnc1)=C\c1ccccc1	-5	-1	/	-11	-4.0	/	/
CCOC(=O)CCP(=O)(O)C(C)(O)c1ccccc1 (stereo not given)	6	5	18987*	5	2.1	1	-4
O=C(COc1ccc(Cl)cc1)NNC(=O)c1ccccn1	24	19	2471	6	3.3	2	-2
Cc1ccccc1NC(=O)Cc1c[nH]c2ccccc12	7	12	3685	3	7.9	9	-20
O=C(CC(=O)NC1CCCCC1)N/N=C/c1cccc2ccccc12	/	/	2611	/	/	5	-7

Entries of single compounds, quoted from the list. Order of screens: Mtb hypoxia rep	Mtb hypoxia rep growth	Autofluor counter	ugtP null kill	Sa RN4220 lethal	BJeLR lethal	PrP UTR inh
CCCN(CC1CCCO1)C(=O)CCc1nnc(CCc2ccc(OC)cc2)o1 (stereo not given) is entered as 7	15	4863	8	1.9	-8	-1
Cc1ccccc1NC(=O)Cc1c[nH]c2ccccc12 is entered as 7	12	3685	3	7.9	9	-20
O=C(COc1ccc(Cl)cc1)NNC(=O)c1ccccn1 is entered as 24	19	2471	6	3.3	2	-2
CNC(=O)c1nc[nH]c1C(=O)NC is entered as 4	4	3764	7	1.0	-5	-42
O=C(CSC(=S)N1CCOCC1)Nc1ncc2c(n1)CC(c1ccco1)CC2=O (stereo not given) is entered as -3	3	4408	3	0.9	2	-8
